gsp ag = qHTS for Agonist of gsp, the Etiologic Mutation Responsible for Fibrous Dysplasia/McCune-Albright Syndrome: qHTS; AID 624287, 2012; Potency, µM (top dose mostly 76.9 µM), inactives show at the top dose activation (cAMP increase), hits mostly activators; 0.13% of 340,000 active; gsp mutant cells, cAMP HTRF, 30 min; control for the full effect not named in the record; active = well fitted activation curve with a large enough effect; inconclusive = small, poorly fitted or top-dose-only effect, or another doubt; inactive = no such curve, though single readings can be large or run the other way; cell line not stated here;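 also: phosphodiesterase inhibitor Ro 20-1724 added with compounds to block cAMP breakdown; potency is read from the fitted curve at half-maximal effect; nearly all actives have a fitted effect of over 60% in size; about a fifth of the inactives were tested at one dose only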
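Cells stably selected in G418 were plated at 2000/well, grown 16-24 hr, then given compounds in DMSO with the PDE inhibitor […] (300 uM solution added) for 30 min at 37C; cAMP was read by HTRF.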
gsp antagonist = qHTS for Antagonists of gsp, the Etiologic Mutation Responsible for Fibrous Dysplasia/McCune-Albright Syndrome: qHTS; gsp-mutant cells, cAMP HTRF, 30 min; control for the full effect not named in the record; Potency, µM (series often up to 76.9 µM), for the others: at the highest dose activity change, negative = inhibition, most hits filed as inhibitors; 0.4% of 340,000 active; AID 624288, 2012; active = falling curve of any shape with a large fitted effect; inconclusive = falling curve, mostly with a smaller effect; inactive = flat or rising curve; cell line not stated here;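 also: intracellular cAMP measured with PDE inhibitor Ro 20-1724 present during compound exposure; potency is read from the fitted curve at half-maximal effect; % is scaled to controls: 0 for no effect and ±100 for the full control effect; nearly all actives have a fitted effect of over 65% in size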
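Measurement of cellular cAMP by homogeneous time-resolved fluorescence following a 30 min compound exposure at 37C. The PDE inhibitor […] was present throughout; the assay buffer was DPBS with 0.05% BSA and 0.005% Tween 20.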
TRPV1 potentiator = HTS Assay for Compounds that Act as Potentiators of the Vanilloid Receptor 1; TRPV1-expressing cells, Fluo-8 calcium influx, capsaicin EC20 potentiation; host cell line not named in the record; control for the full effect not named in the record; AID 540277, 2011; potentiation, % at 8.33 µM; 0.02% of 320,000 active; Transient receptor potential cation channel subfamily V member 1 (Homo sapiens), Q8NER1; active means potentiation above 80%; inconclusive means 30% to 80%; inactive means below 30%; also: 0% is about no effect
Target sequence (Q8NER1 whole entry, looked up): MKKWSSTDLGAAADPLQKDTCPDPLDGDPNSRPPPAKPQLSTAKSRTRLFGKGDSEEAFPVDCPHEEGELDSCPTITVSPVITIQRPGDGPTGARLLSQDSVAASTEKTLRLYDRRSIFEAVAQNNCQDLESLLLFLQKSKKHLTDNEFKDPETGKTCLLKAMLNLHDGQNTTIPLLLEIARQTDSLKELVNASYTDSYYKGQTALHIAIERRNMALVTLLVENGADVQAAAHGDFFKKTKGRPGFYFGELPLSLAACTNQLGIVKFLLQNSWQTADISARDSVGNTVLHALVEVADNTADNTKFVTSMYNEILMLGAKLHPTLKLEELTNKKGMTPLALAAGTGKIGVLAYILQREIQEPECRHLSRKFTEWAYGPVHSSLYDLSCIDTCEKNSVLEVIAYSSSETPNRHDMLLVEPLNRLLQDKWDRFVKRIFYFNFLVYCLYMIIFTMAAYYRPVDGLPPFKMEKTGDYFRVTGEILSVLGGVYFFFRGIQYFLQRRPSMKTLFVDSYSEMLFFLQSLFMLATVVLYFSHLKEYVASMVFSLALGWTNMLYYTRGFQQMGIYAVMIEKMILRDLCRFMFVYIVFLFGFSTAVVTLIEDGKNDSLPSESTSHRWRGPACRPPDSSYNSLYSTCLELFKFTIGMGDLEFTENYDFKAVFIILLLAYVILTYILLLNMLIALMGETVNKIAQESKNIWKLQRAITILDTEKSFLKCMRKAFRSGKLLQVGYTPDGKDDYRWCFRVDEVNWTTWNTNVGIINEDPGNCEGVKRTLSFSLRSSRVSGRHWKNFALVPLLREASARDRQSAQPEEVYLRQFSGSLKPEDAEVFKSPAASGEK
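Cells expressing TRPV1 were dye-loaded with Fluo-8 and read kinetically: 10 s baseline, 3 min after compound (agonist portion), then 2 min after EC20 capsaicin (allosteric enhancer portion). Calcium-bound dye fluorescence at 480/520 nm.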
Menin MLL FP FL = qHTS Assay for Inhibitors Targeting the Menin-MLL Interaction in MLL Related Leukemias: Competition With Fluorescein Labeled MLL-derived Peptide; 290,000 tested, under 10 active; AID 1766, 2009; Fluorescence polarization, fluorescein-MLL peptide displacement from menin; FP activity change, % at 61.4 µM; inconclusive = falling polarisation curve, or a change in total fluorescence; inactive = total fluorescence flat and polarisation flat or rising; no compound was filed as active; the % refers to the polarisation; negative = inhibition;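 also: % of control where 0% means no effect; inhibitors lower the polarisation; unlabelled MLL peptide was the positive control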
Sfp PPTase inh = qHTS Assay for Inhibitors of Bacillus subtilis Sfp phosphopantetheinyl transferase (PPTase); 4'-phosphopantetheinyl transferase ffp (Bacillus subtilis), Q9F4F7; 3.5% of 310,000 active; Biochemical Sfp PPTase activity, qHTS; Potency, µM, for the others: max response, negative = inhibition, hits mostly inhibitors; AID 1490, 2009; active = well fitted inhibition curve with a large enough effect; inconclusive = small, poorly fitted or top-dose-only effect, or another doubt; inactive = no such curve, though single readings can be large or run the other way;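 also: the enzyme is Sfp with the accession as filed and its product quenches rhodamine fluorescence; potency is read from the fitted curve at half-maximal effect; 0% = enzyme reaction without inhibitor and -100% = no enzyme wells; top concentration of the series not given in the record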
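Compounds were incubated with enzyme (final 15 nM) for 15 min at room temperature before substrate addition started the reaction. Fluorescence at 525 nm excitation, 598 nm emission was recorded immediately and after 30 minutes.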
ClpP mod = qHTS Assay for Activators of ClpP; ATP-dependent Clp protease proteolytic subunit (Bacillus subtilis (strain 168)), P80244; purified B. subtilis ClpP, FRET peptide cleavage, 20 min; 1.9% of 340,000 active; Potency, µM (top dose mostly 57.5 µM), without a hit: at the highest dose activity change, negative = active; active = well fitted falling curve with a large enough effect; inconclusive = small, poorly fitted or top-dose-only effect; inactive = no such curve, though single readings can be large or run the other way; also: potency is read from the fitted curve at half-maximal effect; the source files actives as falling curves though it sought activators and does not explain the sign; nearly all actives have a fitted effect of over 65% in size; many hits overshoot -100%
Target sequence (P80244 whole entry, looked up): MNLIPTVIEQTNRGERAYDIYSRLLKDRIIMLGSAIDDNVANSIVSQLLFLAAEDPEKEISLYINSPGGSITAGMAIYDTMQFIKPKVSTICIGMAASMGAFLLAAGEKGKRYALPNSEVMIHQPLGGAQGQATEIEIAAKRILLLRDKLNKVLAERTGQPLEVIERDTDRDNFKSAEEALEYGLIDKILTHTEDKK
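ClpP 10 microg/mL final, pH 8 Tris/KCl buffer with BSA, glycerol, Tween-20; compound pinned in; FRET-FV substrate; RT 20 min; Ex320/Em430; ΔFRET vs ADEP 5.8 microM, DMSO, no enzyme.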
CtBP-E1A blk = qHTS Assay for Inhibitors of the CtBP/E1A Interaction; 0.49% of 340,000 active; AlphaScreen GST-E1A/His-CtBP binding, 1536-well; active compounds read low; control for the full effect not named in the record; activity change, % (test concentration not listed); in the data active means activity change below about -65%; inconclusive means about -30% to -65%; inactive means above about -30%; also: % is scaled to controls: 0 for no effect and ±100 for the full control effect
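In 5 uL wells, 23 nL compound meets equimolar GST-E1A and His-CtBP (5X stock 125 nM each) for 2 h, 37 °C. Beads (5X, 50 ug/mL) then 1 h, 37 °C, dark.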
Active calls of the source: *; ? = inconclusive; / = not tested or not shown; & = joins results of further samples; [ ] = remark or other dose.

structure	gsp ag	gsp antagonist	TRPV1 potentiator	Menin MLL FP FL	Sfp PPTase inh	ClpP mod	CtBP-E1A blk
CCCCOc1ccc(OCCNC(=O)c2ccco2)cc1	19.1%	-1.4%	9.7	?	6.4%	/	1.2
COc1ccc(OCCCCOc2ccccc2Cl)cc1	-3.0%	-4.0%	7.0	-0.1	-4.9%	-0.3%	1.2
CCC(NC(=O)c1ccccc1O)c1ccccc1 (centres undefined)	18.4%	-11.3%	0.2	2.4	5.8%	31.6µM*	6.3
O=c1ccc(-c2ccc(S(=O)(=O)Nc3ccccc3Cl)o2)n[nH]1	?	-25.4%	3.5	2.1	7.7%	0.5%	-13.7
CCN(Cc1ccccc1)C(=O)CN1C(=O)COc2ccc(S(=O)(=O)N3CCCCCC3)cc21	16.9%	-22.3%	17.8	3.0	2.0%	3.3%&1.2%	1.2
Cn1nc(CC(=O)Nc2ccc3c(c2)CCC3)c2ccccc2c1=O	4.0%	-12.9%	7.7	-3.7	11.4%	-3.5%	-2.5
CC(OC(=O)c1ccc(S(=O)(=O)NCc2ccco2)cc1)C(=O)Nc1ccc(Cl)cn1 (centres undefined)	-8.5%	2.1%	5.0	9.2	-7.9%	-1.3%	-1.4
CSc1nnc(NC(=O)C2CCCCC2)s1	-0.1%	7.1%	-10.2	-0.6	13.3%	1.9%	0.0
CCc1c(C(=O)Nc2ccc(C)c(C)c2)[nH]c(C)c1C(C)=O	40.1%	-6.4%	-12.4	2.1	1.4%	/	-12.2
CC(=O)c1nn(-c2ccc(Br)cc2)cc1C(=O)c1ccco1	-17.3%	-1.6%	-6.7	-1.4	0.1%	-3.3%	-12.3
O=C(N/N=C/c1cccs1)c1ccc2ccccc2c1	-2.6%[15.4 µM]	-19.1%	-1.0	-0.7	1.1%	-5.1%	4.6
CC(C)C[C@H](NC(=O)c1[nH]cnc1C(=O)N[C@@H](C)c1ccccc1)C(=O)OC(C)(C)C	?	1.3%	?	2.4	19.5%	2.5%	0.6
COc1cccc(CNC(=O)c2ccc(NC(=O)CC3SC(N4CCCC4)=NC3=O)cc2)c1 (centres undefined)	-2.2%	4.7%	-0.3	/	/	2.82µM*	-0.8
CN(C)S(=O)(=O)c1ccc(Cl)c(C(=O)NNC(=O)Cn2ccc(C(F)(F)F)n2)c1	8.1%[15.4 µM]	-10.7%	-7.8	/	/	0.6%	12.5
CSc1cccc(CNC(=O)C2CCC(=O)N(CCCN3CCCC3=O)C2)c1 (centres undefined)	11.8%[15.4 µM]	0.9%	-14.8	/	7.9%	3.5%	-3.6
COc1ccc(/C(N)=N/OC(=O)c2cccc([N+](=O)[O-])c2C)cc1	-11.6%[15.4 µM]	11.1%	1.8	1.3	3.5%	-4.4%	0.0
Cc1ccc(N(CN2C(=O)c3ccccc3C2=O)C(=O)c2ccc([N+](=O)[O-])cc2[N+](=O)[O-])cc1	-29.6%	-23.4%	-13.4	0.3	20.4%	-2.0%	-16.5
CCOC(=O)c1sc2nccc(N(C)C)c2c1N=CNOCc1ccccc1	-1.9%	7.0%	-2.4	1.8	-27.1%	-29.3%	55.5
O=C(CCCOc1ccc(Cl)cc1)Nc1cccc(C(=O)O)c1	-4.6%	0.1%	27.4	-1.3	32.5%[activator]	/	1.0
Cc1cc(C)c2c(N)c(C(=O)NN3CC(=O)N(c4cccc(Cl)c4)CC3=O)sc2n1	13.0%[15.4 µM]	8.8%	13.5	1.4	19.3%	0.1%	-6.2
O=C(/C=C/c1ccc(Br)o1)Nc1nccs1	2.7%	-0.6%	-6.1	17.6	?	1.4%	/
CCCCC(=O)N=c1sc2c(OC)ccc(OC)c2n1C	?	6.3%	-5.9	3.8	18.2%	0.5%	9.7
Cc1ccc(NC(=O)CN2C(=O)COc3ccc(S(=O)(=O)N4CCOCC4)cc32)cc1F	?	3.9%	3.6	-0.9	7.1%	-0.5%	-4.4
CC[C@H](C)NC(=O)CCCCCn1c(=S)[nH]c2c([nH]c3ccc(OC)cc32)c1=O	29.8%	2.0%	0.2	0.4	18.1%	-4.8%	-0.2
CCc1ccccc1N=C1S/C(=C/c2ccccc2OCC(=O)N2CCOCC2)C(=O)N1C	2.6%	-25.3%	1.9	6.6	?	0.5%	-12.9
COc1cc(/C=N/N=C2/NC(=O)C(CC(=O)O)S2)ccc1OCc1cccc(Cl)c1 (centres undefined)	-39.0%[inhibitor]	5.6%	13.4	-0.8	-17.2%	/	-4.8
CCOC(=O)N1CCN(C(=O)CSc2nnc(-c3cccc(Cl)c3)o2)CC1	-62.3%[inhibitor]	-5.5%	-1.5	-0.8	6.8%	-2.8%	-17.4
COc1ccccc1NC(=O)NC1CC(=O)N(c2ccc3c(c2)OCCO3)C1 (centres undefined)	28.3%	3.3%	6.2	/	/	-1.7%	0.0
CC(C)C[C@H](NC(=O)c1nc[nH]c1C(=O)NCC(=O)OC(C)(C)C)C(=O)OC(C)(C)C	/	1.1%	-24.2	2.3	39.1%[activator]	1.8%	0.1
O=c1c(Cc2ccc(Cl)cc2)c(O)ccn1Cc1cccc(Cl)c1	17.4%	-6.3%	9.8	10.3	18.1%	-3.5%	-0.2

Just gsp ag, for some of the entries so far:
compound,gsp ag
COc1ccc(/C(N)=N/OC(=O)c2cccc([N+](=O)[O-])c2C)cc1,-11.6%[15.4 µM]
COc1cccc(CNC(=O)c2ccc(NC(=O)CC3SC(N4CCCC4)=NC3=O)cc2)c1 (centres undefined),-2.2%

(more compounds)
structure	gsp ag	gsp antagonist	TRPV1 potentiator	Menin MLL FP FL	Sfp PPTase inh	ClpP mod	CtBP-E1A blk
Cc1ccc(S(=O)(=O)N(C)CCCC(=O)NC(C)(C)CO)cc1	-1.5%	3.5%	3.3	1.4	19.1%	/	1.7
CCc1c(O)nc(SCC(=O)Nc2cc(C)on2)n(-c2ccccc2)c1=O	?	-7.5%	3.5	/	20.2%	-1.2%	-1.6
Brc1c(C[n+]2ccccc2)nc2ccccn12	3.6%	7.1%	13.9	9.0	18.9%	/	6.6
C=CCOC(=O)C1=C[C@@H](c2ccccc2)[C@H](CCCO)[C@@H](OCC)O1	?	-6.2%	-10.2	-1.5	15.1%	-3.7%	-15.0
O=C(NCCc1ccc(C(F)(F)F)cc1)C1CC(=O)N(c2ccc3c(c2)OCCO3)C1 (centres undefined)	-41.4%[inhibitor]	-2.0%	-17.2	/	/	-3.1%	-3.8
O=C(NC(=S)Nc1ccc(NC(=O)c2cccs2)cc1)c1ccco1	?	2.9%	-1.0	6.2	4.0%	-5.6%	-20.3
O=C(Cn1c(=O)[nH]n(-c2ccccc2)c1=O)N1CCCc2ccccc21	-18.4%	-10.3%	-1.7	-1.8	-4.0%	-0.1%	2.7
COc1ccc(C(=O)NC2CC(C)(C)NC(C)(C)C2)cc1OC	-9.0%[15.4 µM]	8.3%	?	-2.5	0.9%	0.7%	0.9
CCOC(=O)c1c(NC(=O)CSc2nc3ccccc3s2)sc(C)c1C	2.4%	-6.6%	7.8	16.6	0.8%	-24.3%	-5.0
Cc1cc(-c2onc3ccc(Cl)cc23)ccc1O	-15.0%[15.4 µM]	/	3.0	?	-39.0%	/	-6.0
O=C(COC(=O)c1ccccc1O)Nc1ccc(OC(F)F)cc1	0.0%	2.6%	1.1	1.8	14.4%	-27.8%	-3.2
C=CCOCCN(C)C1=NS(=O)(=O)c2ccccc21	-0.8%[15.4 µM]	/	4.7	-0.8	12.8%	/	0.3
O=C(NC(c1ccccc1)c1ccccc1)C1(c2cccs2)CCOCC1	-14.4%[15.4 µM]	-23.4%	7.8	7.6	4.0%	-12.2%	9.3
Clc1nc(-c2ccccc2)cc(-c2ccc(Br)cc2)n1	8.8%	-12.6%	/	/	/	-12.3%	65.3
Cc1ccc(C(=O)C(=O)c2ccc(C)c(N)c2)cc1N	14.3%[15.4 µM]	-2.7%	/	-1.4	-5.0%	/	-12.4
COc1ccc(C(CNCC(=O)Nc2ccccc2F)N(C)C)cc1 (centres undefined)	-3.6%	29.1%	4.4	-7.6	?	-1.7%	0.3
COc1ccccc1CC(=O)Nc1ccc(-c2noc(COc3ccc(Br)cc3)n2)cc1	11.7%	4.3%	12.3	/	-9.2%	-17.7%	6.9
COc1cc(-c2nnco2)cc(OC)c1OC	2.5%	0.2%	8.1	0.5	1.7%	/	2.8
O=S(=O)(Cc1ccccc1Cl)CC(O)COc1ccccc1Cl (centres undefined)	-16.4%	-10.0%	6.8	-1.8	13.3%	-3.1%	-2.2
COC(=O)Cc1c(C)nc2nc(-c3ccccc3)[nH]n2c1=O	9.0%	8.0%	8.3	3.1	4.5%	?	-3.4
CCOC(=O)CCNC(=O)c1ccccc1Br	15.0%	3.9%	-2.8	-0.8	20.6%	-0.6%	-0.2

Screening data (PubChem)
